Bioassay records deposited in PubChem BioAssay by National Center for Advancing Translational Sciences (NCATS).
Menin MLL FP FL – qHTS Assay for Inhibitors Targeting the Menin-MLL Interaction in MLL Related Leukemias: Competition With Fluorescein Labeled MLL-derived Peptide; 290,000 tested, under 10 active; FP activity change, % at 61.4 µM; Fluorescence polarization, fluorescein-MLL peptide displacement from menin; inconclusive = falling polarisation curve, or a change in total fluorescence; inactive = total fluorescence flat and polarisation flat or rising; no compound was filed as active; the % refers to the polarisation; negative = inhibition;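 also: % of control where 0% means no effect; inhibitors lower the polarisation; unlabelled MLL peptide was the positive control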
TRPV1 PAM – HTS Assay for Compounds that Act as Potentiators of the Vanilloid Receptor 1; Transient receptor potential cation channel subfamily V member 1 (Homo sapiens), Q8NER1; TRPV1-expressing cells, Fluo-8 calcium influx, capsaicin EC20 potentiation; host cell line not named in the record; control for the full effect not named in the record; potentiation, % at 8.33 µM; 0.02% of 320,000 active; active means potentiation above 80%; inconclusive means 30% to 80%; inactive means below 30%; also: 0% is about no effect
Target sequence (Q8NER1 whole entry, looked up): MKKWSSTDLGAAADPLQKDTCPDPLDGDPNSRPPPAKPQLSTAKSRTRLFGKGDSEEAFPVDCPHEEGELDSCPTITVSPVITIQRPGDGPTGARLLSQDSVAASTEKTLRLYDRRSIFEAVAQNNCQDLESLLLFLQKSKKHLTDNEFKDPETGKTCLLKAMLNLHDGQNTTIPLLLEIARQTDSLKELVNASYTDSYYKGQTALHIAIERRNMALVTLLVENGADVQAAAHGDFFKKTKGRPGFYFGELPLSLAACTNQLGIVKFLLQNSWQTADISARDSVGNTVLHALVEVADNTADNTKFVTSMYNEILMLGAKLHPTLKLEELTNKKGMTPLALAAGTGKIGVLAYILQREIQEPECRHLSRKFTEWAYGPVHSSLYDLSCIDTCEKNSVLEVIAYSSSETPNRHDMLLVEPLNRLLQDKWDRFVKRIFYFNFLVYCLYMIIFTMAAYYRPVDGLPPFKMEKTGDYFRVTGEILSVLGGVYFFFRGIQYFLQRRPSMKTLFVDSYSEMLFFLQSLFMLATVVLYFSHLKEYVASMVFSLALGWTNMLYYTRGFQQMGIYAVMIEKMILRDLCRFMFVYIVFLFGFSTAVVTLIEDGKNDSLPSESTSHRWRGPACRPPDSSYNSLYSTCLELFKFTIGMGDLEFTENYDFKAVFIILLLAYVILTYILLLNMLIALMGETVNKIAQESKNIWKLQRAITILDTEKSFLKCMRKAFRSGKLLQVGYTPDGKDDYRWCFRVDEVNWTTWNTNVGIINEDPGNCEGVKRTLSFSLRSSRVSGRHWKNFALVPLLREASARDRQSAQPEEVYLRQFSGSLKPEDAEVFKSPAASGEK
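TRPV1-expressing cells were cultured overnight at 35.5C and loaded with Fluo-8 calcium dye for 40 to 90 min at room temperature. After a 10 s baseline, compound was added and calcium influx was read kinetically for 3 min (ex 480/em 520 nm).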
TRPML1 ag – qHTS for Agonists of the Human Mucolipin Transient Receptor Potential 1 (TRPML1) | Mucolipin-1 (Homo sapiens), Q9GZU1 | TRPML1-expressing cells, Ca2+ dye fluorescence, FDSS; host cell line not named in the record; reference of the full effect not given here | activation, % (test concentration not listed) | 0.12% of 410,000 active | AID 624414, 2012; in the data active = activation above about 50%; inconclusive = about 30% to 50%; inactive = below about 30%; also: 0% is about no effect; the text of the record puts the active cut at 80%
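In this qHTS format, compounds were pin-transferred onto Ca8-dye-loaded TRPML1-DL cells induced with Tet overnight, and intracellular Ca2+ fluorescence was recorded kinetically for 110 s after a 10 s baseline. A subsequent 4uM final 54-4 (EC80) addition followed by a second 110 s read served as the antagonist phase.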
TRPML1 inh – qHTS for Inhibitors of the Human Mucolipin Transient Receptor Potential 1 (TRPML1) | Mucolipin-1 (Homo sapiens), Q9GZU1 | AID 624415, 2012 | 0.02% of 390,000 active | TRPML1-inducible cells, Ca2+ dye fluorescence, FDSS; stronger effect = lower value; inhibition of EC80 agonist-evoked calcium signal | activity change, negative = inhibition, % (no concentration beside the values); in the data active means activity change below about -50%; inconclusive means about -30% to -50%; inactive means above about -30%;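 also: stimulus is agonist 54-4 at its EC80 concentration; % is scaled to controls: 0 for no effect and ±100 for the full control effect; compound concentration not given in the record; the text of the record puts the active cut at -80%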
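Tet-induced TRPML1-DL cells loaded with Ca8 no-wash calcium dye were read kinetically on FDSS. Compound addition was followed by EC80 agonist 54-4 (4 uM final); inhibition was read over 110 s.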
Sfp PPTase inh – qHTS Assay for Inhibitors of Bacillus subtilis Sfp phosphopantetheinyl transferase (PPTase). 3.5% of 310,000 active. Biochemical Sfp PPTase activity, qHTS. Potency, µM, without a hit: max response, negative = inhibition, hits mostly inhibitors. 4'-phosphopantetheinyl transferase ffp (Bacillus subtilis), Q9F4F7; active = well fitted inhibition curve with a large enough effect; inconclusive = small, poorly fitted or top-dose-only effect, or another doubt; inactive = no such curve, though single readings can be large or run the other way;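 also: the enzyme is Sfp with the accession as filed and its product quenches rhodamine fluorescence; potency is read from the fitted curve at half-maximal effect; 0% = enzyme reaction without inhibitor and -100% = no enzyme wells; top concentration of the series not given in the record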
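Step 1, compound plus 15 nM Sfp-PPTase, 15 min, room temperature. Step 2, add rhodamine-CoA (5 uM) and BHQ-2-YbbR (12.5 uM). Step 3, read 525/598 nm fluorescence at 0 and 30 min.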
PINK1 modulator – A Quantitative High throughput Screen to Identify Chemical Modulators of PINK1 Expression; PINK1 immunofluorescence, high-content cytometry, 24 h; Potency, µM (top dose mostly 76.6 µM), inactives show at the top dose activation (PINK1 increase), usual class: activators; 0.2% of 410,000 active; active = well fitted activation curve with a large enough effect; inconclusive = small, poorly fitted or top-dose-only effect; inactive = flat fitted curve, though single readings scatter; cell line not stated here;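 also: potency is read from the fitted curve at half-maximal effect; % of control where 0% means no effect; nearly all actives have a fitted effect of over 65% in size; a mitochondrial uncoupler was the plate control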
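Decision-based qHTS: stable cells, 24 h exposure to five compound concentrations, CCCP as control. Fixed cells stained for PINK1 plus nuclear, mitochondrial and cell markers, cytometer read.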
ClpP mod – qHTS Assay for Activators of ClpP; purified B. subtilis ClpP, FRET peptide cleavage, 20 min; Potency, µM (series often up to 57.5 µM), for the others: top-dose activity change, negative = active; 1.9% of 340,000 active; AID 651965, 2013; active = well fitted falling curve with a large enough effect; inconclusive = small, poorly fitted or top-dose-only effect; inactive = no such curve, though single readings can be large or run the other way; also: potency is read from the fitted curve at half-maximal effect; the source files actives as falling curves though it sought activators and does not explain the sign; nearly all actives have a fitted effect of over 65% in size; many hits overshoot -100%
Target sequence (P80244 whole entry, looked up): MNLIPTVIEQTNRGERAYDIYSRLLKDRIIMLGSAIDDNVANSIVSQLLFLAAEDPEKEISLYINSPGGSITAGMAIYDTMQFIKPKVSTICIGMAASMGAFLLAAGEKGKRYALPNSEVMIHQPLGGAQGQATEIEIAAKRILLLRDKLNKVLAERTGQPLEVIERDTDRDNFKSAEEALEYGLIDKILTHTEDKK
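Buffer: 100 mM Tris/HCl pH8, 100 mM KCl, 0.05% low protease BSA, 2.5% glycerol, 0.01% Tween-20. ClpP 10 microg/mL final; 20 min RT; delta FRET normalized to ADEP and DMSO controls.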
Numbers without * were called inactive; u = inconclusive; x = no result given; [ ] = another dose, or the depositor's remark.

1	CCN(CC)C(=O)c1ccc(-c2nnc(Nc3ccc(O)cc3)c3ccccc23)cc1
2	CN(C(=O)OCc1ccccc1)C(CC(N)=O)C(=O)O (centres undefined)
3	CCCC(=O)N1c2ncnn2C2(CCCCC2)[C@@H]2CCCC[C@@H]21
4	Cc1c(C(=O)N2CCC(C)CC2)sc2ncnc(N3CCN(c4ccccc4)CC3)c12
5	N#C[C@@H]1[C@@H]2C(=O)N(c3ccc4c(c3)OCCO4)C(=O)[C@@H]2C2c3ccccc3C=CN21 (some centres undefined)
6	CCOc1ccc(NS(=O)(=O)c2cccs2)cc1S(=O)(=O)N1CCCC1
7	COc1ccc(CCN2CC(C(=O)NCCc3cccc(F)c3)CCC2=O)cc1 (centres undefined)
8	CCCCCCCC(=O)NC(Nc1ccccc1OC)C(Cl)(Cl)Cl (centres undefined)
compound no.	1	2	3	4	5	6	7	8
Menin MLL FP FL	7.3	-1.8	x	-3.9	u	x	0.2	2.4
TRPV1 PAM	-8.3	19.5	x	x	18.8	x	-7.5	-5.9
TRPML1 ag	x	0.4	-0.5	1.1	x	-0.4	0.4	-0.4
TRPML1 inh	x	-3.7	10.7	1.1	x	-5.3	26.4	-2.3
Sfp PPTase inh	8.4%	11.2%	x	19.3%	-5.0%	x	10.4%	10.8%
PINK1 modulator	0.7%	-1.4%[38.3 µM]	-1.0%	2.6%	x	0.5%	-2.2%	4.1%[38.3 µM]
ClpP mod	1.2%	-2.6%	-1.3%	-1.9%	x	0.0%	-2.2%	-3.6%

9	CCOc1cc(C#N)ccc1OCC(=O)N1CCN(C(=O)c2cccs2)CC1
10	Cc1cc2c(c(C)c1Cl)C(c1ccc3c(c1)OCO3)CC(O)(c1ccccc1)O2 (centres undefined)
11	CCOC(=O)c1ccc(NS(=O)C23CC4CC(CC(C4)C2)C3)cc1 (centres undefined)
12	COc1ccc(N2CCc3c(C)nc(SC)nc32)cc1
13	COc1ccc(CNc2ncnc3ccc(-c4c(C)noc4C)cc23)c(OC)c1
14	CC(OC(=O)c1ccc(C#N)cc1)C(=O)Nc1ccc(Cl)cn1 (centres undefined)
15	COc1ccc(/C=N/NC(=O)c2nc(-c3ccccc3)cc(-c3ccccc3)n2)cc1O
16	CCc1ccc2oc(-c3cccc(NC(=O)C(C)(C)Oc4ccc(Br)cc4)c3)nc2c1
compound no.	9	10	11	12	13	14	15	16
Menin MLL FP FL	x	-0.1	3.9	3.7	-4.4	x	6.7	x
TRPV1 PAM	-1.8	x	-3.5	4.0	x	-2.3	-0.6	x
TRPML1 ag	-0.3	0.3	-0.2	0.9	x	0.3	0.4	2.0
TRPML1 inh	4.6	8.0	5.1	-9.8	x	35.9	-3.5	-1.9
Sfp PPTase inh	x	23.7%	6.9%	5.8%	-5.0%	x	-14.9%	x
PINK1 modulator	2.2%	x	0.2%[38.3 µM]	1.9%	2.8%	-1.1%	-1.1%	-0.3%
ClpP mod	-0.9%	x	0.2%	x	x	-2.3%	2.1%	3.7%

17	Cc1ccc(C(=O)CCCn2nnc(-c3cccnc3)n2)cc1C
18	O=C(COc1ccc(F)cc1)N1CCC(Cc2ccccc2)CC1
19	Cc1ccc(/C(O)=C2/C(=O)C(=O)N(CCN3CCOCC3)C2c2cccnc2)cc1 (centres undefined)
20	O=C(Nc1ccc(N2CCCC2)cc1)c1cc([N+](=O)[O-])ccc1N1CCOCC1
21	Cc1noc(C)c1NC(=O)N(C)C[C@H]1OCc2cnnn2CCCC(=O)N([C@H](C)CO)C[C@H]1C
22	Cn1c(=O)c2c(ncn2CCc2ccccc2)n(C)c1=O
23	Cc1ccc(S(=O)(=O)N(C)C[C@@H]2OCc3cnnn3CCCC(=O)N([C@H](C)CO)C[C@@H]2C)cc1
24	COCCCNC(=S)N1CCN(c2nc(-c3ccc(Cl)cc3)cs2)CC1
compound no.	17	18	19	20	21	22	23	24
Menin MLL FP FL	-0.8	0.5	1.0	-8.5	x	-3.7	x	x
TRPV1 PAM	-3.7	-8.6	-7.6	3.9	x	-9.8	x	x
TRPML1 ag	0.2	1.0	0.0	-0.7	1.1	0.2	0.3	0.2
TRPML1 inh	0.5	18.0	10.2	55.2	9.2	-15.4	-3.0	15.6
Sfp PPTase inh	14.4%	3.8%	u	-4.6%	x	15.4%	x	x
PINK1 modulator	2.3%	1.3%	8.6%[38.3 µM]	4.4%	2.1%	0.7%	-0.7%	3.0%
ClpP mod	1.0%	0.3%	1.7%	-2.9%	-3.3%	-1.0%	-0.9%	-6.2%

25	O=C(CCNC(=O)OCc1ccccc1)NC1CCCCCC1
26	CC(Oc1ccccc1)C(=O)N1CCC2(CC1)CC(=O)c1ccccc1O2 (centres undefined)
27	O=C(NCCCc1nc2ccccc2n1CCOc1ccccc1)C1CCCCC1
28	COc1ccccc1NC(=O)CN(Cc1ccco1)C(=O)c1cc2ccccc2o1
29	CCOC(=O)C(C)Sc1nnc(Cc2cc(=O)[nH]c(=O)[nH]2)n1-c1ccc(OCC)cc1 (centres undefined)
30	CC(C)C(=O)Nc1nc2c(s1)CC(C(C)(C)C)CC2 (centres undefined)
31	Cc1ccc(CSc2ncn(-c3ccccc3)n2)cc1
32	COCCNC(=O)CCn1c(=O)c2cc(OC)c(OC)cc2n(CC(=O)Nc2ccccc2OC)c1=O
compound no.	25	26	27	28	29	30	31	32
Menin MLL FP FL	-2.6	x	x	0.4	-2.2	x	-0.2	x
TRPV1 PAM	-9.2	-2.2	x	2.9	x	x	-4.7	x
TRPML1 ag	1.0	-0.5	-0.5	x	0.1	1.0	0.0	-0.8
TRPML1 inh	-8.8	5.7	x	x	18.1	-22.0	5.0	7.8
Sfp PPTase inh	11.7%	x	x	-1.9%	-7.5%	x	14.4%	x
PINK1 modulator	1.7%	0.6%	0.0%	x	0.6%	5.1%	1.8%	0.2%
ClpP mod	0.8%	25.1µM*	0.5%	x	-0.5%	3.1%	-1.4%	-8.4%

Part of the list above, as labelled records.
31) Cc1ccc(CSc2ncn(-c3ccccc3)n2)cc1
  Menin MLL FP FL: -0.2
  TRPV1 PAM: -4.7
  TRPML1 ag: 0.0
  TRPML1 inh: 5.0
  Sfp PPTase inh: 14.4%
  PINK1 modulator: 1.8%
  ClpP mod: -1.4%

29) CCOC(=O)C(C)Sc1nnc(Cc2cc(=O)[nH]c(=O)[nH]2)n1-c1ccc(OCC)cc1 (centres undefined)
  Menin MLL FP FL: -2.2
  TRPV1 PAM: x
  TRPML1 ag: 0.1
  TRPML1 inh: 18.1
  Sfp PPTase inh: -7.5%
  PINK1 modulator: 0.6%
  ClpP mod: -0.5%

28) COc1ccccc1NC(=O)CN(Cc1ccco1)C(=O)c1cc2ccccc2o1
  Menin MLL FP FL: 0.4
  TRPV1 PAM: 2.9
  TRPML1 ag: x
  TRPML1 inh: x
  Sfp PPTase inh: -1.9%
  PINK1 modulator: x
  ClpP mod: x

(continued)
33	O=C1C2C3C=CC(O3)C2C(=O)N1N=Cc1cccc2ccccc12 (centres undefined)
34	COc1ccc(O)c(C(=O)c2cnn(C(=O)c3cccc(S(=O)(=O)N(C)C)c3)c2)c1
35	O=C(CSc1nnc(CNC(=O)c2ccccc2)o1)c1ccccc1
36	Cc1c(C(=O)N2CCOCC2)oc2c1-c1nn(CC(=O)NCc3ccccc3)cc1CC2
37	CCc1ccc(NC(=O)CSc2nc3ncc(Br)cc3[nH]2)cc1
38	CCOC(=O)C1=C(C)N=c2s/c(=C\c3ccc(C(=O)O)cc3)c(=O)n2C1c1ccc(OC)cc1OC (centres undefined)
39	Cc1cccc(CC(=O)Nc2sc(C(C)C)cc2C(=O)N2CCOCC2)c1
40	CCCCn1c(=O)[nH]c(=O)c2c1nc(-c1cc(Br)c(OCC)c(OC)c1)n2C
compound no.	33	34	35	36	37	38	39	40
Menin MLL FP FL	x	x	-1.1	x	-2.9	x	x	-4.2
TRPV1 PAM	x	x	3.1	x	-1.4	x	0.8	6.4
TRPML1 ag	-0.3	0.3	-0.4	-0.5	2.0	-0.8	-0.4	-0.2
TRPML1 inh	3.5	13.0	-17.2	18.0	22.6	8.0	5.6	-6.9
Sfp PPTase inh	x	x	10.9%	x	13.2%	x	5.9%	15.2%
PINK1 modulator	-2.8%	-1.4%	-1.2%	-0.2%	3.1%	0.0%	0.6%	4.0%
ClpP mod	x	14.9%	-3.7%	22.7%	0.7%	x	-2.0%	x

41	O=C(O)CSCC(=O)N1CCN(c2nc3cc(Cl)ccc3s2)CC1
42	O=C(CSC1=NC(=O)C(Cc2ccccc2)C(=O)N1)NC1CCCCC1 (centres undefined)
43	COCCCNC(=S)NNC(=O)C(O)(c1ccccc1)c1ccccc1
44	CCCCN=c1scc(-c2ccc3c(c2)NC(=O)CO3)n1N=C1CCCC1
45	Cc1ccc(-n2nnnc2CNC(=O)c2ccc3c(c2)OCO3)cc1C
46	Cc1cc(C)c(NC(=O)CSc2nc3ccccc3nc2N2CCCCC2)c(C)c1
47	O=C(CSc1ccccc1)Nc1ccc(NC(=O)c2ccco2)cc1
48	COc1ccc(-c2nnc(SCC(=O)NNC(=O)Cc3ccccc3)n2C)cc1OC
49	CCC(=O)N1CCCC(C)(C(=O)Nc2ccc(C)c(C)c2)C1 (centres undefined)
compound no.	41	42	43	44	45	46	47	48	49
Menin MLL FP FL	5.8	3.2	-5.2	u	1.3	x	-2.1	-1.0	x
TRPV1 PAM	-7.6	12.1	7.5	-8.4	-33.5	x	x	-3.0	x
TRPML1 ag	x	0.2	1.7	0.3	-0.6	-0.9	-0.4	0.8	-0.6
TRPML1 inh	x	8.7	1.7	16.1	1.4	12.2	-10.2	25.1	x
Sfp PPTase inh	16.1%	18.5%	5.8%	7.2%	6.0%	x	-1.6%	-0.6%	x
PINK1 modulator	1.3%	3.1%[38.3 µM]	0.2%	u	0.9%	2.0%	x	1.7%	1.2%
ClpP mod	-1.2%	-0.8%	x	-0.8%	-6.7%	-2.2%	-0.5%	-1.3%	-20.3%
